Calb FLC – affects C. albicans growth with fluconazole | growth inhibition, % (concentration not given with the values) | AID 1979 | C. albicans CaCi-2 (fluconazole-resistant clinical isolate) + fluconazole, Alamar Blue growth, 48 h | 0.57% of 300,000 active;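 active = most replicates above 75%; inconclusive = exactly half above 75%; inactive = most below 75%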;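 also: all wells also contain fluconazole at 8 µg/ml as a sub-toxic cotreatment; 0% = median of DMSO wells and 100% = median of geldanamycin control wells; wells of about 8 µL received 7.5 nL stock; the first replicate is given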
T cruzi inh – T. cruzi replication inhibition | T. cruzi beta-gal in NIH3T3, luminescence, 90 h | inhibition, % (concentration not given with the values) | 1.4% of 300,000 active | AID 1885;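 active = mean inhibition across valid replicates above about 55%, limit read from the data; inconclusive = mean below that limit but half or more replicates reach it; inactive = mean below it, under half of replicates reach it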;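 also: signal also drops with host cell toxicity which is not excluded here; 0% = plate median of DMSO wells and 100% = zero luminescence signal; higher percent means less beta-gal luminescence so fewer parasites; stock transfer was 50 nL into about 50 µL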
LANA-H2A inh – blocks KSHV LANA binding to histone H2A/H2B | Q9QR71 | cell-free LANA-H2A/H2B peptide, fluorescence polarization | inhibition, % (no concentration beside the values) | 0.6% of 320,000 active | AID 2629; in the data active = inhibition mostly above about 10%, no sharp cut-off; inactive = mostly below about 6.7%;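 also: stock transfer was 7.5 nL into about 10 µL; 0% = median of vehicle wells and 100% = median of positive control wells; one replicate is shown; the record names a cut of 25% in any replicate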
Vif A3G – HIV-1 Vif–A3G interaction blockers – biochemical, TR-FRET, GST-Vif 1-94, biotin-A3G peptide, dose response retest, primary screen (AID 1117319); TR-FRET GST-Vif / biotin-A3G peptide binding; higher % means a stronger effect; test concentration not given here; strong numbers were not always called active; inhibition, %, or IC50 in µM where a hit was titrated; 0.57% of 260,000 active;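 active = above the screen mean plus three standard deviations and confirmed in dose response; inconclusive = results disagree or hit not tested in dose response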;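 also: Vif residues 1-94 fused to GST binding biotinylated APOBEC3G peptide 110-148; 0% = full assay without inhibitor and 100% = GST in place of GST-Vif; retest series ran down from 100 µM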
MLL AF4-AF9 inh – inhibitors of human MLL-AF4/AF9 interaction; P42568; AlphaScreen, biotin-AF4 peptide binding to FLAG-AF9; inhibition, % at 10 µM; 0.47% of 350,000 active;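 active = every replicate reaching a set inhibition limit, whatever the replicate mean, cut at about 25% in these data; inconclusive = mean inhibition reaches that limit but some replicates miss it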;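 also: 0% = plate neutral control median and 100% = total signal loss; the record names both 10 and 1 µM as test concentration; the first replicate is given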
Target sequence (P42568 whole entry, looked up): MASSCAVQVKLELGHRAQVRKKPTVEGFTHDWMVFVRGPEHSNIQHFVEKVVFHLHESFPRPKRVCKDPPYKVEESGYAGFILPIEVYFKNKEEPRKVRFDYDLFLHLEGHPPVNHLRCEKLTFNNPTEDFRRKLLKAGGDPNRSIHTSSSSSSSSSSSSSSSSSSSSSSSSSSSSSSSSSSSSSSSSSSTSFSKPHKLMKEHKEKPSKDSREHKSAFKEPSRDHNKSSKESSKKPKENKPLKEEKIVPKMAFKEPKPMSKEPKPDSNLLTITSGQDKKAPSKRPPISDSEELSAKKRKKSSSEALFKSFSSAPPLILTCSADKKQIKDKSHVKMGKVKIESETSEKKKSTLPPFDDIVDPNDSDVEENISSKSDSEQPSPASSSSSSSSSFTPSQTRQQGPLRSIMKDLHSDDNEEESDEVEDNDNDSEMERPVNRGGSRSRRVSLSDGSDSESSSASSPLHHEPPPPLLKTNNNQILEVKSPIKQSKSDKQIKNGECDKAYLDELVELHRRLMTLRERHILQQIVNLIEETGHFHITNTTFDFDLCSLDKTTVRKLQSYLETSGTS
RanGTP-Impb inh – disruptors of Ran-importin-beta complex formation – biochemical, FRET, CFP-Ran, YFP-importin-beta, homogeneous, primary screen; cell-free CFP-Ran/YFP-importin-beta FRET ratio; inhibition, % (no concentration beside the values); 1.1% of 300,000 active;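 active = most replicates above 15%; inconclusive = exactly half above 15%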;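 also: 0% = DMSO wells and 100% = Ran loaded with GDP instead of GTP; wells of about 40 µL received 100 nL stock; the first replicate is given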
Bfl-1 A1 inh – inhibitors of the anti-apoptotic protein A1, read as caspase activation; MEF A1-2A-BIM cells, Caspase-Glo 3/7 luminescence, 3 h; percent of clofoctol response, vehicle zero; caspase activation, % (test concentration not listed); 0.066% of 330,000 active; AID 2462;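 active = over half of replicate activation scores above 10%, or exactly half above 10 with the replicate mean above 10; inconclusive = replicate mean below 10 yet half the replicates above 10; inactive = over half of replicates below 10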;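 also: wells of about 30 µL received 50 nL stock; many hits fall short of the cut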
Beta cell apopt – beta cell apoptosis inhibition | INS-1E cytokine-induced death, ATP luminescence, 48 h; percent of positive-control rescue, neutral wells zero | protection from apoptosis, % (no concentration beside the values) | 0.8% of 300,000 active;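 active = all replicates at 75% or more, or half of them and the mean; inconclusive = half reach 75% but not the mean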;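 also: 0% = cytokine-treated negative control wells and 100% = positive control rescue; higher means more ATP so stronger rescue from cytokine killing; wells of about 40 µL received 100 nL stock; the first replicate is given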
Starred values were filed as active, the others as inactive; u = inconclusive; x = not tested or not shown; & = joins results of further samples.

Screens in order – Calb FLC	T cruzi inh	LANA-H2A inh	Vif A3G	MLL AF4-AF9 inh	RanGTP-Impb inh	Bfl-1 A1 inh	Beta cell apopt
- O=C(NCCN1C(=O)C2C3C=CC(C3)C2C1=O)Nc1ccc(Br)cc1 (stereo not given)
 : 1	10	-2.0	26%	-3.7	-2.5	-0.5	-4
- CCC(=O)Nc1c(C#N)c2nc3ccccc3nc2n1-c1ccccc1C
 : 19	-4	-2.8	10%	x	u	0.0	-7
- O=C(COC(=O)c1cn(-c2ccccc2)nc1-c1cccs1)NC1CC1
 : 5	15	-1.3	-54%	x	-2.8	0.2	-1
- O=C(c1c(F)cccc1F)N1CCC(O)(c2ccc(F)cc2)CC1
 : -3	-7	-5.7	-4%	-2.9	-0.7	0.3	0
- CCN(C(=O)COc1ncnc2sccc12)c1ccccc1
 : 26	-2	2.7	-2%	-1.4	x	1.7	-2
- O=C(OCn1ncc(Br)c(Br)c1=O)c1ccccc1Cl
 : 5	59*	1.1	-43%	x	u	-0.6	112*
- O=C(Cn1c(=O)oc2cc(S(=O)(=O)N3CCc4ccccc43)ccc21)N1CCCCC1
 : -3	17	-1.7	2%	12	-3.7	0.3	-2
- CCC1S/C(=N/N=C/c2ccco2)NC1=O (stereo not given)
 : 1	-15	-2.2	13%	-11	-1.3	0.9	-5
- CCc1cccc(NC(=O)CCC(=O)N2CCSc3ccccc32)c1
 : -3	1	0.3	1%	-3.6	-1.6	0.5	5
- Cc1ccc(Nc2nnc(SCC(=O)NCC3CCCO3)s2)cc1C (stereo not given)
 : x	x	1.3	x	-3.5	x	-5.3	3
- O=c1c2ccccc2cnn1Cc1n[nH]c(=S)n1-c1ccc(F)cc1
 : 12	-14	-1.7	-3%	-1.7	-0.1	-0.3	-5
- COc1cc(C(C(=O)NC2CCCCC2)N(CCN2CCOCC2)C(=O)C2COc3ccccc3O2)cc(OC)c1OC (stereo not given)
 : 24	11	6.4	-1%	-6.9	-2.4	0.6	2
- Cc1ccc(-c2cn3c(n2)SCC3)cc1
 : -1	-22	2.7	-1%	0.3	-1.7	0.2	-4
- CCOc1ccc(NS(=O)(=O)c2cc(C(=O)N3CC(C)OC(C)C3)ccc2C)cc1 (stereo not given)
 : -3	2	-6.4	4%	0.3	x	0.2	-4
- CCOCCn1c(=O)c2c(nc3n2CCN3c2ccc(C)cc2)n(C)c1=O
 : 2	-17	-3.5	x	-21	3.6	-0.5	-6
- Cc1ccc2cc3c(nc2c1)OCC3
 : 0	-3	4.0	0%	-5.5	-1.6	-0.4	-5
- C=CCc1cc(Cl)ccc1OCCOCCNC(C)(C)C
 : -66	46	2.9	-4%	-0.1	-0.7	0.0	-9
- COc1ccc(NC(=O)CN(C)C(=O)c2ccc3c(c2)OCCO3)cc1
 : 5	1	3.3	3%	-1.8	-1.3	1.9	-5
- CCCOc1ccc(C(=O)CCC(=O)OCC(=O)N(C)c2c(N)n(Cc3ccccc3)c(=O)[nH]c2=O)cc1
 : -1	-3	3.2	x	-2.1	1.8	-0.7	1
- Cc1nc(NC(=O)c2cc3ccccc3o2)sc1C
 : -23	3	-5.4	x	-1.7	3.9	0.1	12
- Cc1nc(N)ncc1Sc1ccc(Cl)cc1
 : -1	-28	8.9	x	0.6	5.5	-0.2	x
- CC(=O)NCCC1CCCCN1C(=O)c1cc(COc2cc(C)ccc2C)on1 (stereo not given)
 : 1	2	-0.4	x	0.4	5.4	-0.9	4
- COc1ccc([N+](=O)[O-])cc1NC(=O)CSCc1ccc(Br)cc1
 : -20	-1	-0.8	22%	2.2	-2.1	-0.5	-3
- CC(=O)NCCC(=O)Nc1cc(S(=O)(=O)N2CCCCC2)ccc1Oc1cccc(C)c1
 : -1	-1	1.7	x	0.1	-1.4	-2.2	4
- COC(=O)c1cc(NCc2cccs2)ccc1N1CCOCC1
 : -6	6	0.1	28%	x	0.6	0.2	9
- CCOc1ccc(/C(O)=C2/C(=O)C(=O)N(c3ncccn3)C2c2ccc(Cl)cc2)cc1 (stereo not given)
 : -1	-47	-2.8	1%	x	-1.9	-0.5	2
- O=S(=O)(Nc1nc2ccccc2[nH]1)c1ccccc1
 : u	9	1.4	7%	x	6.5	-1.0	-13
- Cc1noc(C)c1CN(C(=S)NC1CC1)c1ccccc1
 : -2	-16	7.8	x	2.9	-3.7	-0.4	-2
- COc1ccc(N(CC(=O)NCCc2ccc(OC)c(OC)c2)S(=O)(=O)c2ccc(OC)c(OC)c2)cc1
 : -2	2	1.6	2%	-0.4	-1.0	0.3	-7
- CNS(=O)(=O)c1cccc(C(=O)OCC(=O)NCc2ccccc2)c1
 : -8	-13	-2.8	1%	x	u	0.8	5
- COc1cccc(C(=O)Nc2ccc(N3CCN(C(=O)c4ccco4)CC3)cc2)c1
 : 4	-3	1.1	x	-0.6	u	1.1	2
- COCCNc1nc(-c2cc(C)n(CCc3ccc(OC)cc3)c2C)cs1
 : -25	60*	7.9	u	5.2	2.5	0.1	1
- Cc1ccc(-c2nnc(CN3CCCCC3C)o2)cc1 (stereo not given)
 : -7	-4	0.1	15%	-1.4	-0.2	0.0	1
- C#CC(C)(C)NC(=O)CSc1nc2c(c(=O)n(C)c(=O)n2C)n1CCCC
 : 2	6	0.5	2%	-0.6	0.3	1.0	2
- CCN(CCNC(=O)CS(=O)(=O)Cc1nc(-c2cccc(OC)c2)oc1C)c1ccccc1
 : 12	-3	-0.1	-9%&-6%	x	1.7	-0.3	-8
- CC1=NN(c2cccc([N+](=O)[O-])c2)C(=O)C1
 : -7	-10	3.1	x	0.7	-0.4	0.3	0
- CC(C)N(C(=O)NC(=O)NCC1CCCO1)S(C)(=O)=O (stereo not given)
 : -5	-1	0.8	-4%	x	0.6	0.6	-2
- COc1cccc(-n2c(CN3CCN(c4ccc(C)cc4)C(C)C3)nc3ccc([N+](=O)[O-])cc3c2=O)c1 (stereo not given)
 : -5	39	-0.1	12%	1.3	-1.3	0.0	3
- COc1ccc(OCCCC(=O)Nc2nnc(C3CCCO3)s2)cc1 (stereo not given)
 : 13	-3	2.4	3%	x	6.3	0.2	-2
- CC1=C(C(=O)OC2CCCC(C)C2)C(c2ccccc2)NC(=O)N1 (stereo not given)
 : 2	-5	2.7	x	0.1	-3.5	0.8	1
- O=C(O)CNS(=O)(=O)c1cccc(Cl)c1
 : 0	3	4.3	x	-22	-1.0	0.5	1
- O=C(NCCc1c[nH]c2ccccc12)Nc1cccc2ccccc12
 : 4	-19	0.0	1%	x	1.6	0.4	-6
- COc1cccc(CN2CCNC(=O)C2CC(=O)NCCOc2cccnc2)c1OC (stereo not given)
 : 1	-6	-4.1	x	-1.0	2.7	0.3	0
- CC1CCc2nn(CC(=O)NCCN3CCOCC3)cc2C1 (stereo not given)
 : 0	-14	7.4	-3%	-3.8	-0.9	0.7	-6
- Cc1c(NC(=O)COc2cccc(Cl)c2Cl)c(=O)n(-c2ccccc2)n1C
 : 5	6	-0.4	5%	-8.6	7.4	1.3	x
- Cc1ccc(/C=N/NC(=O)CN2CCN(S(=O)(=O)c3ccc(Br)cc3)CC2)s1
 : -2	-17	-3.7	x	x	-1.9	-0.4	-3
- Cc1ccc(C2NC(=O)c3c(sc(C)c3C)N2)c(O)c1 (stereo not given)
 : 7	-5	-4.3	15%	x	24*	-1.6	-3
- CCCc1cc(=O)oc2cc(C)cc(OCC(=O)NCc3ccncc3)c12
 : -6	-3	-0.8	x	0.2	0.1	u	2
- COc1ccc2c(c1)OC13CCCCC1C2C(C(=O)c1ccccc1)C(=O)N3 (stereo not given)
 : -7	-2	-1.8	1%	-2.4	2.2	0.7	-9
- C=CCN(N=Nc1cccc([N+](=O)[O-])c1)c1cccc([N+](=O)[O-])c1
 : 18	30	-8.5	-3%	14	-1.6	0.5	9
- O=C(NCCCn1ccnc1)c1nn2c(C(F)(F)F)cc(-c3ccc(Br)cc3)nc2c1Cl
 : 1	13	x	6%	u	0.8	-0.3	2
- C=C(C)C(=O)Nc1ccc(OC(F)(F)C(F)F)c(NC(=O)C(=C)C)c1
 : 3	-1	0.5	u	x	-3.0	0.3	-1
- Cc1cccc(NC(=O)c2cccnc2)c1
 : -4	11	-2.6	1%	x	-0.5	-0.2	-2
- Cc1ccccc1OCC(=O)NNC(=O)CCN1C(=O)c2ccccc2C1=O
 : -12	-6	2.8	x	-14	0.6	-0.1	2
- COc1ccc2[nH]cc(CCN=C3SCC(=O)N3C)c2c1
 : 3	-6	-2.0	-1%	x	-2.5	-0.8	-5
- COc1ccc(Nc2ccc(S(=O)(=O)N3CCCCC3)cc2[N+](=O)[O-])cc1
 : 12	6	-3.0	-4%	x	-1.4	0.3	17
- Cc1cc(-c2ccc(C)c(S(=O)(=O)NC(C)Cc3ccco3)c2)on1 (stereo not given)
 : 10	19	0.6	x	-0.1	6.2	-0.6	2
- CC(C)(C)NC(=O)N1CCn2cccc2C1c1ccccc1F (stereo not given)
 : -2	0	-3.1	0%	-1.9	-4.8	-0.6	-2
- O=C(Nc1ccc2c(c1)OCO2)C(=O)c1c[nH]c2ccccc12
 : -9	20	-0.1	x	0.0	-4.0	0.4	-2
- CCOc1ccc(C(=O)Nc2cccc(C(C)=O)c2)cc1[N+](=O)[O-]
 : 2	23	-7.2	3%	0.3	2.3	-0.2	3

Additional entries.
Screens in order – Calb FLC	T cruzi inh	LANA-H2A inh	Vif A3G	MLL AF4-AF9 inh	RanGTP-Impb inh	Bfl-1 A1 inh	Beta cell apopt
- S=c1[nH]nc(-c2cccc(Cl)c2)n1/N=C/c1ccco1
 : 3	-8	-1.4	x	x	-3.6	-0.7	-8
- COc1ccc(C2/C(=C(/O)c3ccccc3)C(=O)C(=O)N2CCO)cc1 (stereo not given)
 : 3	-11	0.1	3%	x	6.8	1.9	0
- CCOC(=O)c1nnn(-c2nc(N(C)C)nc(N(C)C)n2)c1C
 : -17	14	-3.4	23%	-0.9	-2.2	-0.5	x
- CCn1c(SCC(=O)Nc2ccc3c(c2)OCO3)nc2ccccc21
 : -20	-1	-2.7	6%	x	-3.6	0.3	4
- N#Cc1ccccc1NC(=O)C1CC(=O)N(c2ccc3c4c(cccc24)CC3)C1 (stereo not given)
 : 26	-15	-2.0	-4%	-0.7	22*	-0.2	-5
- CC1=CC(=C2C(=O)c3ccccc3C2=O)C=C(C)N1C
 : -6	9	10	5%	x	-0.4	0.3	2
- O=C(O)Cc1ccc(NS(=O)(=O)c2ccccc2Cl)cc1
 : -8	-13	-0.7	-4%	-1.5	-2.6	-0.2	-5
- CCN(C(=O)COC(=O)COc1ccccc1Cl)c1c(N)n(Cc2ccccc2)c(=O)[nH]c1=O
 : x	x	-6.4	u	-0.1	x	1.5	-3
- CC(=O)N=C1SC2CS(=O)(=O)CC2N1c1c(Cl)cccc1Cl (stereo not given)
 : 9	x	4.0	25%	x	x	0.6	-3
- COc1cc(-c2nnc(SCC(=O)Nc3ccc4c(c3)OCCO4)o2)cc(OC)c1OC
 : 1	-20	-4.6	-5%	x	u	0.5	8
- CC1(CCc2ccc3c(c2)OCO3)NCCc2c1[nH]c1ccccc21 (stereo not given)
 : -3	31	2.9	-7%	u	9.1	0.7	-10
